HPGD inh: qHTS Assay for Inhibitors of HPGD (15-Hydroxyprostaglandin Dehydrogenase) | 15-hydroxyprostaglandin dehydrogenase [NAD(+)] (Homo sapiens), P15428 | purified HPGD, NADH fluorescence kinetic, PGE2 substrate | Potency, µM, for the others: at the top dose activity change, negative = inhibition, actives largely listed as inhibitors | 150,000 compounds, 4.3% hits | AID 894, 2007; active = well fitted inhibition curve with a large enough effect (not every such curve was filed as active); inconclusive = small, poorly fitted or top-dose-only effect, or another doubt; inactive = no such curve, though single readings can be large or run the other way;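 also: top concentration of the series not given in the record; plate controls included wells without enzyme; inactives centre near -10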
Target sequence (P15428 whole entry, looked up): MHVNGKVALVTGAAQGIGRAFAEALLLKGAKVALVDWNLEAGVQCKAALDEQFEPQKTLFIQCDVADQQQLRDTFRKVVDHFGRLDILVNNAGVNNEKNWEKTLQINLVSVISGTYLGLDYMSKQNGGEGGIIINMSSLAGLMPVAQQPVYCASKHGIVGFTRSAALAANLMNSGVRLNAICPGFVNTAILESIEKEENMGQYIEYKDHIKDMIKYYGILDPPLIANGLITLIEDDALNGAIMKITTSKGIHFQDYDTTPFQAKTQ
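NADH formation kinetics: reaction with 30 uM PGE2 and 1 mM NAD+ (final), 20 nM enzyme, Tris-HCl pH 8 with Tween 20, after 15 min compound preincubation at room temperature. Fluorescence change, last versus first of five reads.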
The depositor's hits bear a star; ? = inconclusive; & = joins results of further samples; [ ] = another dose, or the depositor's remark. % is scaled to controls: 0 for no effect and ±100 for the full control effect; potency is read from the fitted curve at half-maximal effect. An excerpt; rates above refer to the full screens.

SMILES	HPGD inh
Cc1cccc(NC(=O)c2ccc(S(=O)(=O)N(C)C)cc2)n1	-6%
CC1(C)Oc2ccc3ccc(=O)oc3c2/C(=C/NCCN/C=C2\C(=O)C(C)(C)Oc3ccc4ccc(=O)oc4c32)C1=O	-10%
COc1ccc(CC(C)N2CCN(c3cccc(C(F)(F)F)c3)CC2)cc1OC (stereo unspecified)	-8%
S=C(NCCCNC(=S)Nc1ccccc1)Nc1ccccc1	-8%
Cc1cccc(Cl)c1OCCCCn1ccnc1	0%
CCN(CC)C(=O)CSc1nc2sc(C)c(C)c2c(=O)[nH]1	13µM*
Cc1nnc(SCC(=O)N2CCC(Cc3ccccc3)CC2)n(N)c1=O	-13%
CCc1nc(Cl)c(C#N)c2c1CSC(C)(C)C2	-8%
O=C(c1ccc(OCCN2CCCCC2)cc1)c1c(-c2ccc(O)cc2)sc2cc(O)ccc12	-28%&-26%&-26%&-2%
Cc1[nH]c(=O)[nH]c(=O)c1S(=O)(=O)NCCOC12CC3CC(CC(C3)C1)C2	-26%
O=C(/C=C/c1ccc(Br)o1)NC(c1ccccc1)c1ccccc1	8%
CCCCNC(=O)COC(=O)c1ccc(Cl)c(S(N)(=O)=O)c1	-13%
COc1ccc(Cn2c(O)c(C=Nc3ccc(O)cc3)c3ccccc3c2=O)cc1	-9%
Cc1cc(C)cc(OCC(=O)Nc2ccc3c4c(cccc24)CC3)c1	-12%
COc1ccc(CC(=O)NC(CC(=O)O)c2ccc(OC)cc2)cc1 (stereo unspecified)	-7%
CN(C)c1ncc(S(=O)(=O)c2ccccc2)c(-c2ccc(Cl)cc2Cl)n1	-2%
Cc1ccc(OCC(=O)Nc2ccc3c(c2)nc2n3CCOC2)cc1	-5%
CCCS(=O)(=O)N1CCCC(C(=O)NCCN2CCOCC2)C1 (stereo unspecified)	1%
Cc1cc(NC(=O)CSc2nnc(COc3cccc(C)c3C)n2Cc2ccco2)no1	0%
CCOc1ccc(CC(=N)C2=C(O)CC(C)(C)CC2=O)cc1OCC	-2%
O=C(CSc1nnc2scc(-c3ccccc3)n12)c1ccc2c(c1)OCCO2	-21%
O=c1[nH]c(=O)n([C@H]2C[C@H](O)[C@@H](CO)O2)cc1/C=C/Br	-18%
COC(=O)c1c(NC(=O)CCCC(=O)O)sc2c1CCC2	-16%
S=c1[nH]nc(C23CC4CC(CC(C4)C2)C3)n1Cc1ccco1	-22%
CCC(C(=O)NC(C)CCc1ccco1)n1nc(C)n2c(cc3occc32)c1=O (stereo unspecified)	-2%

Three compounds out of the list above, sorted by the number in HPGD inh, smallest number first:
SMILES	HPGD inh
O=c1[nH]c(=O)n([C@H]2C[C@H](O)[C@@H](CO)O2)cc1/C=C/Br	-18%
CC1(C)Oc2ccc3ccc(=O)oc3c2/C(=C/NCCN/C=C2\C(=O)C(C)(C)Oc3ccc4ccc(=O)oc4c32)C1=O	-10%
CCCS(=O)(=O)N1CCCC(C(=O)NCCN2CCOCC2)C1 (stereo unspecified)	1%

Carrying on:
SMILES	HPGD inh
O=S(=O)(NCCCN1CCN(c2ccccc2F)CC1)c1cccc2cccnc12	-9%
Cc1ccc(C)c(N(CC(=O)NC2CCCC2)C(=O)c2cc3cc4cc(C)ccc4nc3s2)c1	-25%
Cc1cccc(C(=O)NC(=S)Nc2ccc(S(=O)(=O)N3CCN(C)CC3)cc2)c1	-10%
O=c1oc2ccccc2cc1-c1csc(Nc2nc3ccc(F)cc3s2)n1	-11%
COc1c(Cl)cc(Cl)cc1CNCCNCCO	3%
COc1cccc(N2C(=O)CC(N3CCN(S(=O)(=O)c4ccccc4)CC3)C2=O)c1 (stereo unspecified)	-7%
CCOC(=O)c1nc(N)c(=O)n(-c2ccc(C)cc2)n1	-14%
CCCc1nc2ccccc2c(C(=O)OC(C)C(=O)NCc2ccc3c(c2)OCO3)c1CC (stereo unspecified)	-21%
O=C(NCc1cccnc1)C1CCCN(S(=O)(=O)c2ccccc2)C1 (stereo unspecified)	-7%
O=C(O)CCCC(=O)Nc1ccc(Cl)c(Cl)c1	-4%
CN(CCC#N)C(=O)COC(=O)c1ccc(Cl)c(S(N)(=O)=O)c1	-4%
CCOC(=O)c1cc(-c2cccs2)nc2onc(C)c12	?
CN[C@H](CC(=O)O)C(=O)O	-18%&-3%
COc1ccc(Oc2c(-c3ccc(O)cc3O)n[nH]c2C)cc1	-11%
O=C(NCC1COc2ccccc2O1)c1ccc(Cl)cc1 (stereo unspecified)	-18%
CSc1nncc(/C(C)=N\Nc2ccccc2C)n1	-9%
CCn1cc(C(=O)N[C@H](C)c2ccccc2)c(=O)c2cc(F)c(N3CCN(C)CC3)cc21	-8%
COc1ccc(NC(=O)/C(C#N)=C/c2cc(C)n(-c3ccc(N4CCOCC4)c([N+](=O)[O-])c3)c2C)cc1	-5%
O=C(CSC1=NCCS1)Nc1ccc(S(=O)(=O)NC2CCCCC2)cc1	16µM*
CCOC(=O)c1cccc(NS(=O)(=O)c2ccc(NC(C)=O)cc2)c1	-13%
COc1ccccc1[C@@H]1C(c2cccc(C)c2)=NN(c2ccccc2)[C@H]1C(=O)N1CCOC1=O	?
O/N=C/c1ccccc1OCc1ccccc1F	-26%
COc1cc(CNc2ccccc2SC)cc(OC)c1OC	?
CN(Cc1cc(=O)[nH]c2ccccc12)C(=O)c1ccccc1	-8%
O=C(NNC(=O)c1ccc(O)cc1O)c1ccc(Cl)cc1	-1%
(next part)
SMILES	HPGD inh
CCSc1nc2c(c(=O)[nH]c(=O)n2C)n1C/C=C(/C)Cl	?
CCN(CC)CCCNC(=O)c1ccc(Cc2nc3ccccc3[nH]2)cc1	-4%
CCOC(=O)C1=C(C)Nc2nnnn2C1c1cccnc1 (stereo unspecified)	-7%
CCOC(=O)C(C(=O)OCC)C(=O)c1cc(OC)c(OC)c(OC)c1	-13%
NC(=O)CC[C@@H]1NC(=O)[C@H](Cc2ccc(O)cc2)NC(=O)c2cc([N+](=O)[O-])cc(F)c2OCC[C@@H](C(N)=O)NC1=O	-11%
COc1ccc(Cl)cc1S(=O)(=O)n1cnc2ccccc21	-32%
CCOc1ccc2nc(N3CCOCC3)nc(C)c2c1	?
COc1cc(OC)nc(NC(=O)NS(=O)(=O)c2ccc(OC(F)(F)F)cc2)n1	-8%
COc1ccc(C(C(=O)NCc2ccccc2)N(Cc2cccs2)C(=O)c2cnccn2)cc1 (stereo unspecified)	-10%
Cc1cc(C)nc(Nc2nc(=O)c3ccccc3s2)n1	-9%
COC(=O)C1=C(N)Oc2cc(C)n(C)c(=O)c2C1c1ccc(Cl)c(Cl)c1 (stereo unspecified)	-7%
Cc1ccc(S(=O)(=O)N2CCOCC2)cc1NC(=O)Cn1cc(C(F)(F)F)cc(Cl)c1=O	-2%
O=C(NCC(c1cccnc1)N1CCOCC1)C1CCCCC1 (stereo unspecified)	-7%
COc1ccccc1NS(=O)(=O)c1cccc(NC(=O)c2nc3nc(C)cc(C)n3n2)c1	-12%
O=C(c1ccccc1)[C@H]1[C@H](c2ccccc2)[C@@]2(N=C(c3ccccc3)OC2=O)C2c3ccccc3C=NN21 (stereo partly specified)	-21%
Cc1ccnc(NC(=O)c2sc3cc(Cl)ccc3c2Cl)c1	-21%
CC(C)CCN1C(=O)c2ccc(-c3nc4ccccc4c(=O)o3)cc2C1=O	?
Cc1cnc(NC(=O)CSc2nc3ccccc3c(=O)[nH]2)s1	16µM*
O=C(NCc1ccco1)c1ccc(S(=O)(=O)N2CCCc3ccccc32)cc1	-26%
COCCNC(=O)COc1ccc(Nc2ccccc2)cc1	-19%
CCN1C(=O)N[C@@H](CCc2ccccc2)[C@H](C(=O)OC)[C@H]1C	-10%
COc1ccc2c(Cl)c(-c3nnco3)sc2c1	-27%
CC1Cc2ccccc2N1C(=O)CCNS(=O)(=O)c1ccc2c(c1)CCC(=O)N2 (stereo unspecified)	-1%
CCOC(=O)c1ccccc1NCN1C(=O)CSC1=O	?
Cc1ccc(NC(=S)N(CCN(C)C)Cc2cc3cc(C)cc(C)c3[nH]c2=O)cc1	-4%

Grouped by structure: the entries above containing two or more sulfur atoms
SMILES	HPGD inh
S=C(NCCCNC(=S)Nc1ccccc1)Nc1ccccc1	-8%
CCN(CC)C(=O)CSc1nc2sc(C)c(C)c2c(=O)[nH]1	13µM*
O=C(CSc1nnc2scc(-c3ccccc3)n12)c1ccc2c(c1)OCCO2	-21%
Cc1cccc(C(=O)NC(=S)Nc2ccc(S(=O)(=O)N3CCN(C)CC3)cc2)c1	-10%
O=c1oc2ccccc2cc1-c1csc(Nc2nc3ccc(F)cc3s2)n1	-11%
O=C(CSC1=NCCS1)Nc1ccc(S(=O)(=O)NC2CCCCC2)cc1	16µM*
Cc1cnc(NC(=O)CSc2nc3ccccc3c(=O)[nH]2)s1	16µM*

The listing continues.
SMILES	HPGD inh
Cc1cccc(C)c1OCc1nnc(SCC(=O)Nc2cccc(C(=O)N3CCOCC3)c2)n1C	-8%
O=C(CC(C(=O)O)c1ccccc1)Nc1ccccc1 (stereo unspecified)	-5%
COC(=O)c1cc(Cl)c(NC(=O)c2ccco2)cc1OC	-14%
CCOC(=O)Cc1nnc(NC(=O)c2ccccc2OCC)s1	-8%
O=c1[nH]nc(SCc2ccccc2)c(=O)[nH]1	-28%
COc1cc(C2c3c(n[nH]c3C)C(=O)N2c2ccc(C)cc2)ccc1O (stereo unspecified)	-7%
COC(=O)c1ccccc1NC(=O)CCc1ccccc1	-10%
O=C(Cn1nc(C(F)(F)F)cc1C1CC1)NCc1ccccc1F	-6%
COC(=O)CCCC1=CC2=C(c3ccccc3)C(=O)C(C)(OC(=O)C3CCCC3)C(=O)C2=CN1Cc1ccc(OC)cc1 (stereo unspecified)	-6%
Cc1cnc(NC(=O)C2CCCC2)s1	-11%
CC(=O)Nc1ccc(N2CCN(C(C)=O)CC2)cc1	-9%
O=C(O)c1cc2nc(-c3ccc(F)cc3)cc(C(F)(F)F)n2n1	-29%
Clc1ccccc1/C=N/c1cc(-c2ccccc2)nn1-c1ccccc1	-11%
Cc1ccc(S(=O)(=O)n2ccc(-c3cccc(OCc4c(F)cccc4Cl)c3)n2)cc1	-9%
CCN(CC)C(=O)c1cc(C(C)(C)C)c(O)c(C(C)(C)C)c1	-8%
COc1ccc(-c2cc(C(=O)OC3CCOC3=O)c3ccccc3n2)cc1OC (stereo unspecified)	-6%
Cc1nc(N)sc1-c1csc(Nc2ccccn2)n1	-8%
CCOC(=O)c1cc2ccc(OC(=O)c3ccco3)cc2oc1=O	91%[activator]
Cc1cc(Nc2ccc(Br)cc2F)n2nc(C)nc2n1	-13%
COc1ccc(C)cc1NC(=O)C(=O)N/N=C(\C)CC(=O)Nc1cccnc1	-20%
Cc1ccc(-n2c(C)cc(C(=O)CSc3nncs3)c2C)cc1	25µM*
CC(C)=C1C2CCC1C1C(=O)N(NC(=O)c3ccco3)C(=O)C21 (stereo unspecified)	-7%
Cc1ccc(NC(=O)NCCCc2ccccc2)cc1	-19%
CCn1c(CSc2nc(C)cc(C)n2)nnc1SCC(=O)Nc1ccccc1	-13%
O=S(=O)(NCC(c1cccnc1)N1CCN(c2ccc(F)cc2)CC1)c1cccs1 (stereo unspecified)	-17%

Exported with bars between the fields: part of the list above.
structure | HPGD inh
CCOC(=O)Cc1nnc(NC(=O)c2ccccc2OCC)s1 | -8%
O=c1[nH]nc(SCc2ccccc2)c(=O)[nH]1 | -28%
COc1cc(C2c3c(n[nH]c3C)C(=O)N2c2ccc(C)cc2)ccc1O (stereo unspecified) | -7%
COC(=O)c1ccccc1NC(=O)CCc1ccccc1 | -10%

(continued)
SMILES	HPGD inh
O=C(OCc1cc(=O)n2c(n1)sc1ccccc12)c1ccc(O)cc1	14µM*
COC(=O)c1cc(C#N)c(N(C)Cc2ccccc2)nc1C	?
COc1ccccc1OCCCn1c(=O)sc2ccccc21	-24%
O=C(NNS(=O)(=O)c1ccccc1)c1sccc1-n1cccc1	-3%
CCNC(=S)NNC(=O)c1cccn(Cc2ccc(Cl)cc2)c1=O	-6%
C/C(CC(=O)NC1CCCCCC1)=N\NC(=O)c1cnccn1	0%
O=C(O)C(C(=O)/C=C/c1ccco1)=C1SCCS1	-21%
COc1ccc(C(=O)COC(=O)CN2C(=O)C3C4C=CC(C5CC45)C3C2=O)cc1 (stereo unspecified)	-11%
COc1ccc(Cl)cc1N(CC(=O)NC(C)(C)C)S(=O)(=O)c1ccc(C)c([N+](=O)[O-])c1	-16%
O=C(CCS(=O)(=O)c1ccc(Br)s1)NC1CCCCCC1	-2%
CC(C)OC(=O)c1c(NC(=O)Cn2cnc([N+](=O)[O-])n2)sc2c1CCCC2	-27%
CC(C)[C@@H](CC(=O)N[C@@H]1CCCC[C@H]1C(=O)N[C@H](CC(=O)N[C@@H](CCC(=O)O)CC(=O)O)Cc1ccccc1)NC(=O)C[C@H](Cc1ccccc1)NC(=O)[C@@H]1CNCC[C@H]1N	-6%
c1ccc2c(c1)ccc1nnc(-c3ccc4c(c3)OCO4)n12	?
CCOC(=O)c1cnc(-c2ccccc2)[nH]c1=O	-9%
Cc1nc(NC(C)(C)CO)c([N+](=O)[O-])cc1[N+](=O)[O-]	-5%
O=C(c1ccc(F)cc1)c1cn(Cc2ccc(F)cc2)c2cc3c(cc2c1=O)OCCO3	-5%
O=C(Nc1ccc(N=Nc2ccccc2)cc1)c1ccccc1Cl	-5%
O=C(COC(=O)c1cc(S(=O)(=O)N2CCc3ccccc3C2)ccc1Cl)NCc1ccco1	?
Cc1c(C(Nc2ccccn2)c2ccc(Cl)cc2)c(=O)n(-c2ccccc2)n1C (stereo unspecified)	-17%

Bioassay records (PubChem BioAssay)
